# HNF4A DNA FP – change in binding of human HNF4 alpha to DNA. P41235. hit rate 0.3% among 360,000. AID 1224865. HNF4a-FITC DNA binding, fluorescence polarization, 1 h. activity change, % at 10 µM; in the data active = activity change above about 30%, passing the limit was not always enough;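 note: controls were the assay level and a saturating level of protein; the project sought stronger binding though the title names inhibitors; some compounds called inactive have numbers as strong as hits; positive values seem to mean higher polarization but the record does not say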
# Target sequence (P41235 whole entry, looked up): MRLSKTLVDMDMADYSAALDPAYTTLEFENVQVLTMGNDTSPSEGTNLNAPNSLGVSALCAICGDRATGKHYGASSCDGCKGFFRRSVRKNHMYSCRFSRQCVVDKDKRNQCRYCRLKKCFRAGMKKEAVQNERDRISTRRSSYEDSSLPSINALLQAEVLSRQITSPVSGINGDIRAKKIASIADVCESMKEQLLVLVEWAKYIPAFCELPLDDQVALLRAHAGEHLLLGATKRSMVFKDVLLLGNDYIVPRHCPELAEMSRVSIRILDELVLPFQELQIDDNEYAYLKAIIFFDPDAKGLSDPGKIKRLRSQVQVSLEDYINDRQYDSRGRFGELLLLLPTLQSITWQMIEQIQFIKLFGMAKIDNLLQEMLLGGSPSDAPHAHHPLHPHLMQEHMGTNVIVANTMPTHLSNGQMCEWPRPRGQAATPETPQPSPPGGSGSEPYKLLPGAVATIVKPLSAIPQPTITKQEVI
# Calb FLC – C. albicans growth modulation with fluconazole; AID 1979; growth inhibition, % (test concentration not listed); C. albicans CaCi-2 (fluconazole-resistant clinical isolate) + fluconazole, Alamar Blue growth, 48 h; hit rate 0.57% among 300,000;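 active = most replicates above 75%; inconclusive = exactly half above 75%; inactive = most below 75%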;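 note: all wells also contain fluconazole at 8 µg/ml as a sub-toxic cotreatment; 0% = median of DMSO wells and 100% = median of geldanamycin control wells; wells of about 8 µL received 7.5 nL stock; the first replicate is given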
# ALR inh – human ALR oxidase inhibition via reduced H2O2 | P55789 | purified ALR, DTT oxidation, H2O2 HRP-luminol luminescence | inhibition, % (test concentration not listed) | hit rate 3.8% among 290,000;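 active = mean and each replicate at 75% or more; inconclusive = only one of the two met; inactive = neither met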;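 note: stock transfer was 7.5 nL into about 7.5 µL; 0% = neutral wells and 100% = wells with inactivated enzyme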
# Beta2AR agonist – agonists of human beta-2 adrenergic receptor inducing internalization; Am2.2-beta2AR cells, FAP receptor internalization, flow cytometry; reference of the scale not given here; response, % (concentration not given with the values); hit rate 0.43% among 340,000; AID 504454;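 active = response above a set limit, near 3 SD of response in nonfluorescent compounds, cut at about 42% in these data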;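 note: stock transfer was 100 nL into about 11 µL; a reference agonist was the positive control; negative values mostly stem from fluorescent compounds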
# Target sequence (P07550 whole entry, looked up): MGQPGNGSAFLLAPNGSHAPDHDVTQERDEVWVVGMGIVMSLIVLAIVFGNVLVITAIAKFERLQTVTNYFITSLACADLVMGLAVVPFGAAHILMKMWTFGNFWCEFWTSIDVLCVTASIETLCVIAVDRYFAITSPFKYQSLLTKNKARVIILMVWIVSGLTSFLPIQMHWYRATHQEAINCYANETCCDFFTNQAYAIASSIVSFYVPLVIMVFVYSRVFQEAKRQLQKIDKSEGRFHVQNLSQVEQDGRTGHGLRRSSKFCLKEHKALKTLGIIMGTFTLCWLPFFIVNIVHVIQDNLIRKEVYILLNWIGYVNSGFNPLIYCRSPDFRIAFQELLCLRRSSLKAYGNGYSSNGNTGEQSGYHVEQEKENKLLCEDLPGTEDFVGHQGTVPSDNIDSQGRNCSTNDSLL
# Vif TR-FRET – inhibitors of Vif binding to APOBEC3G peptide, primary screen, biochemical, TR-FRET, GST-Vif 1-94, biotin-A3G peptide, dose response retest (AID 1117319) | TR-FRET GST-Vif / biotin-A3G peptide binding; higher % means a stronger effect; test concentration not given here; strong numbers were not always called active | one-dose inhibition, %; IC50 in µM for titrated hits | hit rate 0.57% among 260,000;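 active = above the screen mean plus three standard deviations and confirmed in dose response; inconclusive = results disagree or hit not tested in dose response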;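 note: Vif residues 1-94 fused to GST binding biotinylated APOBEC3G peptide 110-148; 0% = full assay without inhibitor and 100% = GST in place of GST-Vif; retest series ran down from 100 µM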
# LANA-H2B inh – blocks KSHV LANA binding to histone H2A/H2B; hit rate 0.6% among 320,000; inhibition, % (no concentration beside the values); cell-free LANA-H2A/H2B peptide, fluorescence polarization; Q9QR71; in the data active = inhibition mostly above about 10%, no sharp cut-off; inactive = mostly below about 6.7%;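 note: stock transfer was 7.5 nL into about 10 µL; 0% = median of vehicle wells and 100% = median of positive control wells; one replicate is shown; the record names a cut of 25% in any replicate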
# RanGTP-Impb inh – disruptors of Ran-importin-beta complex formation – biochemical, FRET, CFP-Ran, YFP-importin-beta, homogeneous, primary screen | AID 2216 | hit rate 1.1% among 300,000 | inhibition, % (test concentration not listed) | cell-free CFP-Ran/YFP-importin-beta FRET ratio;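 active = most replicates above 15%; inconclusive = exactly half above 15%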;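 note: 0% = DMSO wells and 100% = Ran loaded with GDP instead of GTP; wells of about 40 µL received 100 nL stock; the first replicate is given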
# An asterisk follows results filed as active; ? = inconclusive; . = no result given; & = joins results of further samples.
SMILES	HNF4A DNA FP	Calb FLC	ALR inh	Beta2AR agonist	Vif TR-FRET	LANA-H2B inh	RanGTP-Impb inh
COc1ccc(-c2[nH]ncc2/C=N/NC(=O)c2cccc([N+](=O)[O-])c2)cc1OC	12.8	-1.3	-0.4	-7.7	2.4%	-3.5	-1.4
CCOc1ccccc1NC(=O)C(OC(=O)c1ccccc1)c1ccccc1 (stereo not given)	-5.0	-4.0	-4.9	-2.5	.	-0.4	3.1
O=C(CCc1ccc(S(=O)(=O)NCCc2ccccc2)cc1)NCc1ccc2c(c1)OCO2	-0.7	-2.4	-2.9	0.9	-2.4%	-4.0	-5.2
O=C1C=C(NC(=O)Nc2ccc(Cl)c(Cl)c2)CCC1	-0.7	-11.8	1.4	3.9	.	4.9	-2.1
COc1ccc2c(COC(=O)c3n[nH]c4ccccc34)cc(=O)oc2c1	1.5	2.0	-3.1	-7.5	-6.1%	2.7	4.5
Cc1c(CCC(=O)O)c(=O)oc2cc(OCc3cccc(Cl)c3)ccc12	-1.4	-4.0	6.3	7.9	-0.2%	-2.6	?
Cc1cc(Oc2ccc(=O)n(C)n2)nc(=S)[nH]1	.	-2.0	46.9	.	.	1.3	2.4
Cc1ccc(C(C(=O)NC2CCCC2)N(C(=O)c2csnn2)c2ccccc2)o1 (stereo not given)	0.1	1.6	-0.6	5.6	2.9%	-1.6	1.0
N#C/C(=C\C1=C(N2CCOCC2)C(=C/c2cccc([N+](=O)[O-])c2)/CC1)C(=O)Nc1ccccc1F	53.5*	.	.	-16.3	3.5%	2.6	.
CCC(C(=O)OCC(=O)Nc1cccc(OC)c1)c1ccccc1 (stereo not given)	2.2	-9.6	-6.6	0.6	-9.2%	-1.6	-1.0
COc1ccc(C(CNC(=O)c2ccc(S(=O)(=O)N(C)C)cc2)N(C)C)cc1 (stereo not given)	1.6	28.2	-3.6	-4.0	-7.9%	-6.5	2.0
O=C(Oc1c(-c2ccccc2)c(=O)n2c3c(cccc13)CC2)c1ccc(F)cc1	-3.1	1.5	-4.1	-6.8	-4.5%	8.1	-3.0
CC(C(=O)Nc1ccc(F)c(F)c1F)N(C)CCOc1ccccc1 (stereo not given)	2.5	40.4	-14.5	-4.4	1.8%	10.9*	-0.5
O=C(C1CCC1)N1CCN(c2cccc(C(F)(F)F)c2)CC1	0.2	-3.6	3.6	1.0	.	4.2	0.7
COc1ccc(S(=O)(=O)N2CCc3ccccc32)cc1C(=O)Nc1ccc(NC(C)=O)cc1	1.3	.	-11.5	0.2	.	4.3	.
COc1ccc(-c2cn(-c3ccc(Cl)cc3)c3[n+]2CCCCC3)cc1	3.4	-20.9	-2.0	-0.9	0.9%	1.7	-0.8
COc1ccc(NC(=O)CN(C)C(=O)CNC(=O)Cc2cccc3ccccc23)cc1	3.0	21.8	-2.5	3.3	.	-2.7	1.8
Cc1ccc(NC(=O)COC(=O)c2cccnc2)cc1	-0.3	-10.5	1.8	-1.2	-4.6%	-1.2	2.8
COC(=O)Nc1sc(C(=O)N(C)C)c(C)c1C(=O)OC	-0.5	2.8	-4.0	-3.6	-5.9%	0.7	1.3
CC(NC(=O)c1cc(COc2ccccc2)on1)c1nccs1 (stereo not given)	0.4	8.6	-4.9	1.0	.	0.9	1.6
Oc1ccc(C=NC2CCCCC2)cc1	-0.2	3.7	-26.2	0.6	?	3.2	0.7
O=C(NCC1CCCO1)c1cc(-c2ccccc2)nc2ccccc12 (stereo not given)	4.1	-5.3	-3.9	-1.1	.	3.5	-2.3
COc1ccc(S(=O)(=O)N2CCCCCC2)cc1C(=O)NCc1ccccc1Cl	5.7	.	.	8.8	1.5%	.	.
Cn1c(SCC(=O)C(C)(C)C)nnc1-c1cccnc1	2.6	1.7	6.8	7.2	9.2%	3.7	0.8
CCN1CCN(c2ncc(C(=O)Nc3ccccc3C(=O)OC)c3ccccc23)CC1	1.8	-7.2	-3.7	-0.2	4.7%&22.4%	0.3	-2.1
O=C(O)/C=C\C(=O)Nc1ccc(N2CCN(c3ccc(F)cc3)CC2)cc1	-2.2	-5.8	98.3*	10.0	?	5.2	-1.1
CC(=O)c1c(N)c(C#N)c(C)n1-c1ccc(Br)cc1	-3.2	6.7	-0.6	6.2	-7.3%	-0.3	-0.2
CC1CCCCN1C(=O)Cc1ccc(F)cc1 (stereo not given)	1.0	-10.2	-0.9	3.7	?	1.8	-0.1
O=C(CSc1ccc(-c2cccs2)nn1)Nc1ccccc1F	0.4	33.8	.	-6.2	-11.3%	-1.8	-3.7
COc1ccccc1CN(C)C(=O)c1cccc(S(=O)(=O)N2CCCc3ccccc32)c1	2.5	.	2.1	-1.6	-0.7%	1.8	.
O=c1cc(CSc2ccc(Cl)cc2)nc(N2CCCCC2)[nH]1	3.3	-0.7	45.2	-2.1	0.2%	-0.4	3.7
Cc1c(-c2ccccc2)nc2ccccc2c1C(=O)Nc1ccncc1	1.9	-26.0	-1.2	3.5	-0.4%	-1.6	1.8
CN1CCc2c(sc(/N=C/c3ccco3)c2C(N)=O)C1	2.5	-10.8	.	-8.5	24.8%	-19.2	-2.5
COc1ccc(OC)c(NC(=O)CSc2nnc(C3CCCCC3)n2-c2ccccc2)c1	-0.4	-44.1	-7.7	0.2	.	0.1	2.4
Cc1cc(C)nc(N(C#N)S(=O)(=O)c2ccccc2Cl)n1	3.1	2.3	.	3.6	20.7%	2.1	1.2
Cc1onc(-c2ccccc2)c1C(=O)NNC(=S)NC(=O)/C=C/c1ccccc1	-0.5	3.6	76.3*	6.9	.	2.8	-3.8
COc1ccc(S(=O)(=O)N(CC(=O)NCc2cccnc2)C2CCCCC2)cc1OC	10.8	-4.6	-5.2	-3.1	18.9%	2.1	-4.2
Cc1cccc(-c2ocnc2C(=O)Nc2ccccc2C(=O)N2CCCC2)c1	-0.1	3.6	.	1.5	.	0.6	-1.7
Cc1cccc(-c2nnc3sc(-c4ccccc4)nn23)c1	-1.8	13.1	2.1	-19.9	-10.4%	-2.6	-0.1
Clc1cccc(Cl)c1C[n+]1cccc2ccccc21	3.8	-9.5	3.3	-6.0	.	10.6	2.0
Cc1c(C(=O)N2CCC[C@H]2C(N)=O)oc2c(F)cccc12	1.1	-0.8	-3.2	-2.7	.	1.2	4.6
CNC(=O)c1ccc(NC(=O)CCNC(=O)Nc2ccccc2)cc1	0.4	.	.	0.7	-0.8%	.	.
CCn1nc(C)c(/C=N/NC(=O)Cn2cncn2)c1C	4.0	4.7	0.5	2.1	-1.8%	-2.1	2.0
CC(C)NCC(=O)NC12CC3CC(CC(C3)C1)C2	1.8	-1.2	-2.7	2.7	-4.8%	-1.5	7.7
COc1ccc(-c2n[nH]c(=S)n2/N=C/c2cccn2C)cc1	-1.8	8.2	.	4.3	7.5%	0.9	-1.5
CN(CC1COc2ccccc2O1)C(=O)c1ccc(N(C)C)cc1 (stereo not given)	2.8	-44.7	89.5*	-6.6	7.4%	6.4	-0.2
O=C(C(=Cc1ccc(F)cc1)c1ccccc1)c1ccc(O)cc1	-4.6	.	.	-0.3	-6.8%	.	.
Cc1ccccc1OCCCN1CCCC1	2.3	-10.0	-3.4	-4.2	1.9%	-3.9	1.5
Cc1cc(OCC(=O)C(C)(C)C)c2c(-c3ccccc3)cc(=O)oc2c1	3.1	-1.2	-6.8	3.6	-12.4%	-4.9	-0.6
CC(C)CCNC(=O)COc1cccc2c1OC(C)(C)C2	0.6	29.6	.	15.4	3.8%	-5.2	0.7

# (continued)
SMILES	HNF4A DNA FP	Calb FLC	ALR inh	Beta2AR agonist	Vif TR-FRET	LANA-H2B inh	RanGTP-Impb inh
CC(C)Sc1nnc(Cn2c(=O)sc3ccccc32)n1-c1ccccc1	1.6	10.9	-13.9	-7.3	16.5%	0.2	1.3
O=S(=O)(c1ccccc1)c1cnc2ccccc2c1	1.0	-5.4	.	-6.6	.	-2.5	3.5
COC(=O)[C@@]1(C)[C@H]2C(=O)N(Cc3ccccc3)C(=O)[C@H]2[C@H]2CN=C(SCc3ccc(C#N)cc3)N21	-1.8	.	.	7.7	3.6%	.	.
O=C(O)CCN1C(=O)c2ccc(NC(=O)COc3ccccc3)cc2C1=O	-4.3	.	-0.4	-0.4	.	-1.8	.
CCc1ccccc1N(CC(=O)NCCSCc1ccco1)S(C)(=O)=O	-5.3	12.2	-9.8	1.2	78.4µM*	-0.8	0.1
Cc1nc(C)c(C(=O)NNC(=O)c2ccc(Br)cc2)s1	0.4	-9.6	9.2	5.4	.	-0.3	-2.1
Cc1ccc(C)c(N2CCN(C(=O)c3ccc4nc(-c5ccco5)c(-c5ccco5)nc4c3)CC2)c1	-22.4	-0.3	0.3	20.0	?	3.9	52.2*
CCn1c(C)nc2cc(C(=O)OC(C(F)(F)C(F)F)C(F)(F)C(F)F)ccc21	3.6	1.5	1.2	-15.2	0.1%	7.5	0.3
CCn1c(=O)c(C(=O)NNC(=O)c2cccc(Cl)c2)c(O)c2ccccc21	-1.4	2.0	.	5.5	.	-2.1	0.0
C#CCOCCOCCOCCNc1nc(N2CCN(C(=O)[C@H](CCC(=O)O)n3cc(C(N)[C@H](C)CC)nn3)CC2)nc(N2CCN(C(=O)[C@H](CCC(=O)O)n3cc(C(N)[C@H](C)CC)nn3)CC2)n1 (stereo not given in full)	-2.7	-2.5	1.5	1.4	-3.9%	-1.1	5.5
Cc1ccc(C(C)CCN2CCC(n3nccc3NC(=O)c3ccccc3)CC2)o1 (stereo not given)	-2.6	-3.4	6.1	1.9	-9.4%	4.1	2.1
Cc1nnc(NC(=O)c2ccc3c(c2)C(=O)N(CC2CCCO2)C3=O)s1 (stereo not given)	-0.9	-14.4	-4.8	-4.3	?	1.5	1.8
CC(NC(=O)CCC1COc2ccccc2O1)c1ccccc1 (stereo not given)	15.5	-15.7	-0.1	2.6	7.4%	-2.6	8.6
Cc1ccc(C(=O)/C=C/Nc2ccc(S(=O)(=O)Nc3cc(C)nc(C)n3)cc2)cc1	1.9	-17.9	4.0	-1.8	0.2%	-0.6	-4.1
Cc1ccc(-c2nc3nc4ccccc4nc3n2Cc2ccco2)cc1	-3.0	4.1	2.0	6.4	25.0%	1.6	-0.5
CCc1ccccc1NC(=O)CC1SCCNC1=O (stereo not given)	5.2	-1.4	-18.0	5.3	11.9%	-3.1	-4.0
COC(=O)CCSCC(=O)N1N=C(c2ccc(OC)cc2)CC1c1cccc(OC)c1OC (stereo not given)	2.7	6.6	-3.1	6.0	-0.7%	-3.4	0.1
Cc1ccccc1NC(=O)c1ccc(COc2ccc3c(C)cc(=O)oc3c2)cc1	-1.5	-4.1	0.8	11.0	-8.2%	-5.5	-1.5
Cn1ncc2c(NCc3ccccc3)nc(NCCCO)nc21	-3.5	30.6	-0.8	7.5	1.2%	2.7	2.9
O=C(CN1CCN(S(=O)(=O)c2ccc(Br)cc2)CC1)Nc1ccc2c(c1)OCO2	-5.3	-0.5	.	-1.2	2.4%	.	8.4
Cc1ccc(S(=O)(=O)N2CCC[C@H]2C(=O)NC2=NCCS2)cc1	-2.0	.	.	4.7	-5.3%	.	.
C#CCNC(=O)c1ccc(OCc2ccccc2)cc1Cl	-0.2	-45.9	-11.1	-3.3	.	-1.2	0.8
Fc1ccc(-c2noc(C3CCN(Cc4cccnc4)CC3)n2)cc1	-1.6	-0.8	0.6	3.8	-0.1%	3.9	?

# Screens as filed in PubChem BioAssay.
